SKKanGAS inh: blocks kanamycin growth of S. pyogenes SKKanGAS strain; BacTiter-Glo, 6 h; inhibition, % at 7.5 µM; hit rate 1.3% among 300,000;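 active = mean replicate score, as percent of positive control median, at least 50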;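 note: strain carries kanamycin resistance gene driven by streptokinase promoter and grows in 40 µg/ml kanamycin; loss of luminescence reflects streptokinase promoter inhibition or plain growth inhibition; 0% = median of DMSO wells and 100% = positive control at its reference dose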
TRPC6 act: mouse TRPC6 channel activation | HEK293-TRPC6 membrane potential dye fluorescence; stronger effect = higher value | Q61143 | hit rate 0.13% among 310,000 | B-score at 10 µM;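 active = B-score of the integrated fluorescence ratio above library mean plus 3 SD, and starting fluorescence ratio within library mean plus 5 SD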;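 note: higher score means more depolarization so channel activation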
Target sequence (Q61143 whole entry, looked up): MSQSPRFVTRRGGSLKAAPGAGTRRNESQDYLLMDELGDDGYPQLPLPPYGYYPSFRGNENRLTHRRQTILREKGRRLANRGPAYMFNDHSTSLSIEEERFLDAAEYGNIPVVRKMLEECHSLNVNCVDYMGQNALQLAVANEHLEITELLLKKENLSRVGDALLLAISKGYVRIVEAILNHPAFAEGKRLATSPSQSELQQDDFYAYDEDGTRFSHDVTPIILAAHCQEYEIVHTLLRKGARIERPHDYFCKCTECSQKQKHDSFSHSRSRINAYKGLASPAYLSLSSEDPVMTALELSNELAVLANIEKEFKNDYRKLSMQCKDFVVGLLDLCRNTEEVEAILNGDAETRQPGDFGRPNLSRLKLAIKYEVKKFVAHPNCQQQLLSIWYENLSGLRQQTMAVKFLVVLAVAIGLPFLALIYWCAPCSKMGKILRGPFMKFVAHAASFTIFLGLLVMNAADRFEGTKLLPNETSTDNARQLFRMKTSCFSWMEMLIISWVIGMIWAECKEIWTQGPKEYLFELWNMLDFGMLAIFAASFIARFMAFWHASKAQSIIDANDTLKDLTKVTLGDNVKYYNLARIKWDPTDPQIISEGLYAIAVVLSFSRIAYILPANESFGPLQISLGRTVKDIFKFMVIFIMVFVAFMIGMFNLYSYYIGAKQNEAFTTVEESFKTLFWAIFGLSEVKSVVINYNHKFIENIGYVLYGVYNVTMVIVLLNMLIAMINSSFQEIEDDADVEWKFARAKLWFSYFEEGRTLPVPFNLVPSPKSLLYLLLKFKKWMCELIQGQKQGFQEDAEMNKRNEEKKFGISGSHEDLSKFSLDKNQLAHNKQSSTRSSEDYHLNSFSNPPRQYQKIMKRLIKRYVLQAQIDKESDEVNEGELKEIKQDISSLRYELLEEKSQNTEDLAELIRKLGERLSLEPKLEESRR
MrgX1 antagonist: antagonists of human MrgX1 receptor; Q96LB2; MRGX1-HEK293 calcium flux, Fluo-4, BAM8-22 antagonism; stronger effect = lower value; B-score at 10 µM; hit rate 1.3% among 310,000;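 active = calcium-response B-score plate-corrected more than 3 library SD below zero, starting fluorescence within 5 deviations, no agonist response on first addition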;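 note: peak minus trough fluorescence over baseline after final BAM8-22 challenge near maximal dose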
TRPC4 inh: inhibitors of mouse TRPC4 channel. HEK293 TRPC4beta/mu-opioid, DAMGO-evoked Fluo4 calcium flux; stronger effect = lower value. AID 2247. hit rate 0.39% among 300,000. Q9QUQ5. B-score at 10 µM;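 active = B-score over 3 SD under the library average, no early fluorescence shift, positive overall ratio signal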
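Material: HEK293 cells with stable TRPC4beta plus mu-opioid receptor expression; probe or stimulus: DAMGO in two steps, submaximal then maximal; technique: Fluo4 calcium fluorescence by kinetic imaging, 5 s 1 Hz baseline; measure: integrated fluorescence ratio relative to baseline, converted to per-well B score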
KLF5 inhibitor: suppresses KLF5 promoter-driven expression; DLD-1 KLF5 promoter-luciferase reporter, luminescence; inhibition, % at 5 µM; hit rate 0.23% among 290,000;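 active = inhibition above a per-plate limit of that plate's mean compound inhibition plus 3 SD, cut at about 60% in these data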;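 note: 0% = DMSO wells and 100% = LY294002 at 200 µM; higher means less KLF5 promoter-driven luciferase light; inactives centre near -14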
TRPC4 act: TRPC4 (mouse) channel activation; Q9QUQ5; HEK293 TRPC4beta/mu-opioid, Fluo4 calcium fluorescence; stronger effect = higher value; B-score at 10 µM; hit rate 0.49% among 310,000; AID 2237;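 active = B-score above 5 SD of library B-scores, and initial fluorescence ratio not above library mean plus 5 SD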;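 note: positive B-score marks a calcium rise read as TRPC4 activation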
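System – HEK293 cells stably co-expressing mouse TRPC4beta and mu-opioid receptor · Signal – Fluo4 calcium-sensitive dye fluorescence, kinetic, 1 Hz baseline · Benchmarks – buffer (low) and maximal DAMGO (high) · Read-out – B score of integrated fluorescence ratio per well · Incubation – dye loading 45 min room temperature, 110 s kinetic read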
TRPC6 inhibitor: blocks the mouse TRPC6 cation channel; hit rate 1.1% among 310,000; B-score at 10 µM; Q61143; HEK293-TRPC6, membrane potential dye, ACh-evoked depolarization; stronger effect = lower value;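 active = B-score under library mean minus 3 SD, initial fluorescence not abnormally high, positive integrated signal ratio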;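 note: B-score derived from integrated fluorescence ratio over the kinetic read; more negative B-score means stronger inhibition of depolarization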
IEC-6 cytotox: IEC-6 cytotoxicity, counter-screen for KLF5 inhibitors | luminescence viability | inhibition, % at 5 µM | hit rate 0.78% among 290,000; in the data active = inhibition above about 22%;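 note: 0% = plate median of test compound wells and 100% = cytotoxic reference compound wells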
TRPC4 PAM: allosterically enhances the mouse TRPC4 cation channel | Q9QUQ5 | HEK293 TRPC4beta/mu-opioid, DAMGO EC20, Fluo-4 Ca2+ flux; stronger effect = higher value | B-score at 10 µM | hit rate 0.42% among 310,000 | AID 2227;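 active = B-score of calcium response area above 5 SD of library B-scores, with initial fluorescence ratio within 5 SD of library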;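 note: B-score of integrated fluorescence ratio over time as area under calcium response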
aSyn UTR inh: MLPCN primary screen, SNCA 5' untranslated region | hit rate 0.82% among 300,000 | alpha-synuclein 5'UTR reporter, inhibitor activity | inhibition, % (tested at 7.5 µM) | AID 1813; in the data active = inhibition above about 60%;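 note: H4 neuroglioblastoma cells stably carrying SNCA 5'UTR luciferase fusion; 0% = DMSO wells and 100% = positive control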
Numbers without * were called inactive; i = inactive; x = not tested or not shown. Only part of the results is shown; count on the stated rates, not on these rows.

SMILES | SKKanGAS inh | TRPC6 act | MrgX1 antagonist | TRPC4 inh | KLF5 inhibitor | TRPC4 act | TRPC6 inhibitor | IEC-6 cytotox | TRPC4 PAM | aSyn UTR inh
OC(CCCN1CCC(O)(c2ccc(Cl)cc2)CC1)c1ccc(F)cc1 (centres undefined) | -5 | i | i | i | -21 | i | i | 7 | i | -4
COC(=O)c1ccc(C2NC(C(=O)O)CS2)cc1 (centres undefined) | 13 | i | i | i | -32 | i | i | 1 | i | -24
C/C=C(/C(=C/C)c1ccc(O)cc1)c1ccc(O)cc1 | 1 | i | i | i | -21 | i | i | -2 | i | -25
COc1cccc(C(=O)NCC(=O)n2nc(C)cc2C)c1 | -4 | i | i | i | -12 | i | i | -3 | i | -3
CC1(C)Cc2nc3sc4c(N(CCO)CCO)ncnc4c3cc2CO1 | 7 | i | i | i | -46 | i | i | 2 | i | -16
CN1CCN(c2nc3cc(C(F)(F)F)ccc3n3cccc23)CC1 | 1 | i | i | i | x | i | i | x | i | -2
CC1(c2ccco2)NC(=O)NC1=O (centres undefined) | 3 | i | i | i | -18 | i | i | 0 | i | -23
CCCCC(CCC(=O)Nc1ccc(C(=O)OC)cc1)C(=O)O (centres undefined) | -15 | i | i | i | -7 | i | i | 7 | i | -10
CCCc1cc(-n2ccnc2C)n2c(nc3ccccc32)c1C#N | 2 | i | i | i | x | i | i | x | i | 31
CCc1cccc(CC)c1N(COC)C(=O)Cn1nnc2ccccc21 | -4 | i | i | i | -17 | i | i | -3 | i | -7
Cc1ccc(N=Nc2ccc(N)cc2C)c(S(N)(=O)=O)c1 | 36 | i | i | i | -98 | i | i | -1 | i | -80
CN(C)c1oc(-c2cccs2)nc1C#N | 3 | i | i | i | -10 | i | i | 1 | i | 25
O=C(NCc1ccco1)c1cnn2c(C(F)(F)F)cc(-c3ccco3)nc12 | -6 | i | i | i | -30 | i | i | 2 | i | 27
O=C1CC2(CCCC2)CC(=O)N1CCCCN1CCN(c2ncccn2)CC1 | 2 | i | i | i | 0 | i | i | 5 | i | -23
COc1ccc2c3c([nH]c2c1)[C@H]1C[C@H]2[C@H](C[C@@H](O)[C@H](OC)[C@H]2C(=O)O)CN1CC3 | x | x | i | x | x | x | x | x | x | x
COc1ccc(NC2CC(=O)N(C)C2=O)cc1 (centres undefined) | -1 | i | i | i | -14 | i | i | 0 | i | -23
S=c1nc(-c2ccccc2)[nH]n1-c1ccccc1 | -1 | i | i | i | -30 | i | i | 1 | i | -143
CCSc1nc(O)c(C2OC(=O)c3c2ccc(OC)c3OC)c(=O)n1-c1ccccc1 (centres undefined) | 4 | i | i | i | -14 | i | i | -7 | i | 1
Cc1cc(C)nc(NC2=NCC(=O)N2c2ccccc2)n1 | -4 | i | i | i | -17 | i | i | 0 | i | 2
Cc1c(Nc2ncccc2C(=O)O)cccc1C(F)(F)F | 11 | i | i | i | x | i | i | x | i | -2
Clc1ccc(-n2ncc3c(N4CCCC4)ncnc32)cc1 | -4 | i | i | i | -48 | i | i | 3 | i | 92*
CN1CCN2c3ccccc3Cc3ccccc3C2C1 (centres undefined) | -2 | i | i | i | 0 | i | i | -5 | i | -35
CC1(C)Cc2c(c(N3CCOCC3)nc3sc4c(NCc5ccco5)nnnc4c23)CS1 | 20 | i | i | i | -7 | i | i | -7 | i | 47
Cc1nn(CC(N)=O)c(=O)c2ccccc12 | 2 | i | i | i | -9 | i | i | -8 | i | 1
COc1ccc(NS(=O)(=O)c2ccc(N)cc2)nn1 | -2 | i | i | i | -2 | i | i | 7 | i | -2

Other entries follow.
SMILES | SKKanGAS inh | TRPC6 act | MrgX1 antagonist | TRPC4 inh | KLF5 inhibitor | TRPC4 act | TRPC6 inhibitor | IEC-6 cytotox | TRPC4 PAM | aSyn UTR inh
COc1ccc(CC(=O)OCN2C(=O)c3ccccc3C2=O)cc1 | -3 | i | i | i | -2 | i | i | 9 | i | -4
CC(C)(C)C1CCC2(CC1)C(C#N)=C(SCC(=O)Nc1ccccc1)NC(=O)C2C#N (centres undefined) | 68* | i | i | i | -2 | i | i | -2 | i | 8
CC(C)(C)[C@]1(O)CCN2C[C@H]3c4ccccc4CCc4cccc(c43)[C@@H]2C1 | 2 | i | i | i | -6 | 61* | i | -1 | i | 31
O=C1[C@@H]2[C@H](C(=O)N1n1cnnc1)[C@H]1C=C[C@@H]2C1 | 6 | i | i | i | 19 | i | i | 4 | i | -47
Cc1c(NS(=O)(=O)c2cccc3nsnc23)c(=O)n(-c2ccccc2)n1C | -15 | i | i | i | 1 | i | i | -3 | i | 3
CC(C)(C)C1=Nn2c(nnc2C2CCCCC2)SC1 | 0 | i | i | i | -15 | i | i | 2 | i | 4
CC(C)Oc1ccc(C(=O)CCN2CCCCC2)cc1 | -8 | i | i | i | 6 | i | i | 4 | i | 18
OC(CCN1CCCC1)(c1ccccc1)C1CCCCC1 (centres undefined) | 0 | i | i | i | -15 | i | -8.2* | 3 | i | -15
CC1(C)CC(=O)C2=C(C1)N(Cc1ccco1)C(=O)C2(O)C(F)(F)F (centres undefined) | 2 | i | i | i | -31 | i | i | 0 | i | -21
COc1cccc(C2=CC(c3ccccc3)n3ncnc3N2)c1 (centres undefined) | 2 | i | i | i | -4 | i | i | 4 | i | 9
O=C(c1cccc(Cl)c1)N1CCN(C(=O)c2ccccc2F)CC1 | -7 | i | i | i | -9 | i | i | 1 | i | 21
CN(C)CCNc1nc(-c2ccco2)c2c(c1C#N)CC(C)(C)OC2 | x | i | i | i | -13 | i | -9.7* | -2 | i | 1
Fc1ccc(OCCOCCNCC2CCCO2)cc1 (centres undefined) | 3 | i | i | i | 0 | i | i | -2 | i | 3
O=C(CCCCC(=O)Nc1c(I)cc(I)c(C(=O)O)c1I)Nc1c(I)cc(I)c(C(=O)O)c1I | 0 | i | i | i | x | i | i | x | i | 21
CCCCOc1ccc(C)cc1CN(CCO)CCO | 0 | i | i | i | -30 | i | i | 2 | i | -4
CCCCn1c(O)c(C=NCCCN(C)C)c(=O)[nH]c1=O | -4 | i | i | i | 8 | i | i | 11 | i | -7
COc1ccccc1N1CCN(CCOc2c(OC)cccc2OC)CC1 | 1 | i | i | i | -1 | i | i | 6 | i | 20
COC(=O)CSc1nnc(C)c(=O)[nH]1 | 8 | i | i | i | -44 | i | i | -4 | i | -5
O=C(NC1CCS(=O)(=O)C1)N1CCCCC1 (centres undefined) | 20 | i | i | i | -33 | i | i | 1 | i | 10
Cc1cc(/C=c2/sc3nc4ccccc4n3c2=O)c(C)n1-c1ccccn1 | 21 | i | i | i | 28 | i | i | 5 | i | 88*
O=C(O)CC(SCc1ccc(C(=O)O)o1)C(=O)O (centres undefined) | 1 | i | i | i | -11 | i | i | 8 | i | -7
Cn1c(N)c(C#N)c2c(c1=S)CSC(C)(C)C2 | 1 | i | i | i | -2 | i | i | 4 | i | 7
CCOC(=O)NC(Nc1sc2c(c1C(N)=O)CCCC2)(C(=O)OCC)C(F)(F)F (centres undefined) | 7 | i | i | i | -18 | i | i | 2 | i | 16
Cn1c(=O)[nH]c2cc(Cl)cnc21 | -1 | i | i | i | -10 | i | i | 1 | i | 12
O=c1[nH]nc2n1CCCCC2 | 0 | i | -10* | i | -21 | i | i | 1 | i | 7

Carrying on:
SMILES | SKKanGAS inh | TRPC6 act | MrgX1 antagonist | TRPC4 inh | KLF5 inhibitor | TRPC4 act | TRPC6 inhibitor | IEC-6 cytotox | TRPC4 PAM | aSyn UTR inh
N#Cc1nc(-c2ccc(F)cc2)oc1N1CCCC1 | 0 | i | i | i | -13 | i | i | -1 | i | -38
Cc1nnc2n(-c3ccccc3)c(=O)c3c4c(sc3n12)CCCC4 | -14 | i | i | i | 6 | i | i | 7 | i | 7
CN(C)CCC(c1ccccc1)c1ccccn1 (centres undefined) | -4 | i | i | i | -4 | i | i | 1 | i | -1
CN1CCN(CCCCC(=O)c2ccccc2)CC1 | -2 | i | i | i | -27 | i | i | -1 | i | -3
CCc1c(C)[nH]c2c1C(=O)C(CN1CCOCC1)CC2 (centres undefined) | -3 | i | i | i | x | i | i | x | i | -12
CCCCc1c(O)nc(SCCN(C)C)n(-c2ccccc2)c1=O | 5 | i | i | i | -15 | i | i | -8 | i | 8
O=C1c2ccccc2S(=O)(=O)N1CC(O)COc1ccc(Cl)cc1 (centres undefined) | 11 | i | i | i | -6 | i | i | 5 | i | -13
Nc1nc(Cl)nc2c1ncn2C1CC(O)C(CO)O1 (centres undefined) | 2 | i | -5.1* | i | x | i | i | x | i | 87*
CC1(C)Cc2c(sc3c2C(=O)N(c2ccccc2)C2=NCCCN23)CO1 | 5 | i | i | i | -6 | i | i | -1 | i | 13
O=C(C/C(=N/O)c1ccccc1O)C(F)F | -1 | i | i | i | -13 | i | i | -2 | i | -12
CC(C(=O)O)c1ccc(CC2CCCC2=O)cc1 (centres undefined) | 0 | i | i | i | x | i | i | x | i | 21
Cc1nn(C)cc1/C=N/O | -3 | i | i | i | 1 | i | i | 4 | i | 7
COc1ccc(C2/C(=C(/O)c3ccccc3)C(=O)C(=O)N2c2ncccn2)cc1OC (centres undefined) | 1 | i | i | i | -5 | i | i | 4 | i | -8
C=CCSc1nc(C)c(CC=C)c(=O)[nH]1 | -9 | i | i | i | -29 | i | i | -1 | i | 6
COc1ccc(OC)c(C(O)CNC(=O)CN)c1 (centres undefined) | -1 | i | i | i | x | i | i | x | i | -3
CCCC1Cc2c(sc3ncnc(N)c23)CO1 (centres undefined) | -1 | i | i | i | -31 | i | i | 3 | i | 8
CCOc1ccc(-c2nnc3sc(COc4ccccc4)nn23)cc1 | 9 | i | i | i | 6 | i | i | -6 | i | 1
OCC1CCCC(n2cnc3c(=S)nc[nH]c32)O1 (centres undefined) | -15 | i | i | i | -5 | i | i | 11 | i | 9
CC(=O)Nc1ccc(Oc2ccc3nc(C)[nH]c3c2)cc1 | 9 | i | i | i | -42 | i | i | -6 | i | -7
CCOC(=O)C1=C(C)OC(N)=C(C#N)C1c1cc2ccccc2nc1N1CCCCC1 (centres undefined) | 2 | i | i | i | 1 | i | i | 5 | i | 5
Nc1nc(OCc2ccccc2)c2[nH]cnc2n1 | -3 | i | i | i | x | i | i | x | i | 22
CCOC(=O)c1[nH]c2cc3c(cc2c1NC(=O)CN1CC(C)CC(C)C1)OCO3 (centres undefined) | -3 | i | i | i | -16 | i | i | -3 | i | -2

Source: PubChem
